Bioassay records as filed in PubChem BioAssay.
UCH37 DUB inh: blocks the human deubiquitinase UCH37; Q9Y5K5; purified proteasome/UCH37, Ub-AMC cleavage fluorescence; inhibition, % (concentration not given with the values); 330,000 compounds, 0.33% hits;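 active = mean of two replicates above 20%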;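 also: 0% = compound-free wells with enzyme and 100% = wells lacking proteasome; stock transfer was 100 nL into about 20 µL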
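Signal – fluorescence, ex 355 nm, em 460 nm · System – Proteasome-bound UCH37 · Input – 0.15 nM proteasome as dispensed · Timing – 30 min preincubation with enzyme, 25 min cleavage at room temperature · Read-out basis – percent inhibition of cleavage signal versus uninhibited and no-proteasome wells · Medium – Tris-HCl pH 7.4 with ATP-MgCl2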
E coli growth: blocks Escherichia coli growth. 330,000 compounds, 0.21% hits. OD600 absorbance (test concentration not listed). AID 1053175. OD600, 23 h; stronger effect = lower value;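 active = OD600 absorbance below the run mean of sample wells minus 3.6 SD, in any replicate, cut at about 0.56 in these data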;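 also: stock transfer was 300 nL into about 60 µL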
ALR inh: inhibitors of human sulfhydryl oxidase ALR | AID 485317 | inhibition, % (no concentration beside the values) | purified ALR, DTT oxidation, H2O2 HRP-luminol luminescence | 290,000 compounds, 3.8% hits | P55789;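 active = mean and each replicate at 75% or more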;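 also: stock transfer was 7.5 nL into about 7.5 µL; 0% = neutral wells and 100% = wells with inactivated enzyme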
Target sequence (P55789 whole entry, looked up): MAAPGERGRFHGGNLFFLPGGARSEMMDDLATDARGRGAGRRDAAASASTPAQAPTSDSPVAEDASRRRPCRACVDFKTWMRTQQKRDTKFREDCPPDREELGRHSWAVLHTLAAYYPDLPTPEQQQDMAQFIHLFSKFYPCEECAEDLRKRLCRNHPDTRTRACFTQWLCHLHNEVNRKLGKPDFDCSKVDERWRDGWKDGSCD
B2AR ag: human beta-2 adrenergic receptor agonism by FAP; P07550; Am2.2-beta2AR cells, FAP receptor internalization, flow cytometry; reference of the scale not given here; response, % (concentration not given with the values); 340,000 compounds, 0.43% hits;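 active = response above a set limit, near 3 SD of response in nonfluorescent compounds, cut at about 42% in these data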;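 also: stock transfer was 100 nL into about 11 µL; a reference agonist was the positive control; negative values mostly stem from fluorescent compounds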
Target sequence (P07550 whole entry, looked up): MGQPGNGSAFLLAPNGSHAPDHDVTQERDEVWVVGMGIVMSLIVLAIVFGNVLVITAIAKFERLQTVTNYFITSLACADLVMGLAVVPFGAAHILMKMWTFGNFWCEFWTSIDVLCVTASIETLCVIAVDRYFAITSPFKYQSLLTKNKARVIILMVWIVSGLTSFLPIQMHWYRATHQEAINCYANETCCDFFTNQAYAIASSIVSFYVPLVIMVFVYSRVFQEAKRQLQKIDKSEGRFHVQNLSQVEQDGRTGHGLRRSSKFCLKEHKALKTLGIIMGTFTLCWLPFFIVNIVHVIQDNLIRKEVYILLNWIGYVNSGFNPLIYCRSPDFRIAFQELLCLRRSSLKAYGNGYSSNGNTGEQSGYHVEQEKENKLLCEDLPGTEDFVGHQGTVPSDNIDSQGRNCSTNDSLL
FGF22 binding: FGF22 (human) thermal shift binding | 340,000 compounds, 1.5% hits | calls only at 9.99 µM | AID 651658 | recombinant FGF22 thermal shift, SYPRO orange fluorescence; percent of sucrose octasulfate shift, DMSO zero | Q9HCT0;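 active = melting point raised past a set limit in the mean and every replicate; three in four hits are not shown here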
Target sequence (Q9HCT0 whole entry, looked up): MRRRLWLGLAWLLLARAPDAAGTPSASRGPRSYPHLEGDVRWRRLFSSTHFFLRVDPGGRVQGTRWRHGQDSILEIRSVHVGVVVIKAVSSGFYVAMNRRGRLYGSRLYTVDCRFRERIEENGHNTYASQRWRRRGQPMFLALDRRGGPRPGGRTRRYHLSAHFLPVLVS
HNF4A DNA FP: change in binding of human HNF4 alpha to DNA. AID 1224865. P41235. 360,000 compounds, 0.3% hits. HNF4a-FITC DNA binding, fluorescence polarization, 1 h. activity change, % at 10 µM; in the data active = activity change above about 30%, passing the limit was not always enough;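 also: controls were the assay level and a saturating level of protein; the project sought stronger binding though the title names inhibitors; some compounds called inactive have numbers as strong as hits; positive values seem to mean higher polarization but the record does not say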
rRNA inh HTS: inhibitors of bacterial rRNA selective over humanized ribosomes; GFP signal change (wild-type ribosome), % (concentration not given with the values); 350,000 compounds, 1.6% hits; E. coli WT GFP vs humanized-ribosome RFP mutants, fluorescence, 24 h; stronger effect = lower value; DMSO median 0, no signal -100;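 active = significant combined selectivity score with lowered wild-type GFP, culture density cut under 30%, mutant RFP and density less affected; inactive = any of these conditions unmet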; also: one replicate is shown; some compounds called inactive have numbers as strong as hits
rRNA inh HTS OD600: further read-out of rRNA inh HTS, marked with its call; OD600 change, %; measured here: OD600 growth;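 optical density of the mix in the first replicate; 0 = DMSO median and -100 = no signal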
rRNA inh HTS RFP: second read-out of rRNA inh HTS, no call of its own (marks repeat the call); RFP signal change, %; measured here: RFP humanized mutant strains;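 first replicate; 0 = DMSO median and -100 = no signal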
Numbers without * were called inactive; i = inactive; / = not tested or not shown; + = active, no number. A portion of the library, so the mix of outcomes need not match the whole.

SMILES	UCH37 DUB inh	E coli growth	ALR inh	B2AR ag	FGF22 binding	HNF4A DNA FP	rRNA inh HTS	rRNA inh HTS OD600	rRNA inh HTS RFP
CC(C)(C)c1cc(=O)n2c(nc3ccccc32)[nH]1	-27.1	0.697	-6.1	3.1	/	-1.3	/	/	/
CC1=NNC(=O)C1CCC(=O)N/N=C/c1c(Cl)cccc1Cl (stereo unspecified)	/	/	-3.0	5.7	i	-2.9	5.2	0.4	0.7
COc1cc(CNC2CCCC2)cc(OC)c1OC	1.6	0.692	2.5	-1.8	i	-2.4	9.2	4.2	2.1
Cc1nnc(SCCn2c(N3CCCC(C)C3)nc3c2c(=O)n(C)c(=O)n3C)s1 (stereo unspecified)	1.5	0.75	-2.7	-15.8	i	0.6	2.9	7.2	-5.6
Oc1cccc(NC(=S)Nc2ccc(SC(F)F)cc2)c1	1.9	0.534	53.4	6.5	i	2.7	-23.8	-33.3	8.5
Cc1ccccc1-c1cnc(C(O)c2cc(Cl)cc(Cl)c2)[nH]1 (stereo unspecified)	/	/	/	/	i	1.8	-60.2	-78.8	-18.1
CSCCC(NC(=O)OC(C)(C)C)C(=O)NC(C(=O)NC(CC(C)C)C(N)=O)C(C)C (stereo unspecified)	0.1	0.671	-3.0	1.2	i	-1.2	5.3	8.0	-1.0
COc1cc(/C=C/C(=O)O)ccc1OCc1ccccc1C#N	-2.6	0.672	1.7	-4.2	/	0.2	/	/	/
Nc1cc2[nH]c(=O)c3ccccc3c2cc1[N+](=O)[O-]	/	/	/	-7.1	i	3.7	-6.4	10.5	-1.7
COc1ccc(-c2nc3ccccc3c(=O)n2O)cc1	0.4	0.642	-0.4	2.9	i	2.6	-16.9	-6.6	-3.7
NC(=O)c1nc(-c2ccccc2)c(-c2ccccc2)[nH]c1=O	-1.8	0.72	-14.8	7.5	i	0.8	0.2	9.3	1.0
CSCCC(NC(=O)COc1ccccc1)C(=O)OCCOc1ccc(F)cc1 (stereo unspecified)	-0.5	0.683	0.0	0.3	i	3.5	-6.5	-9.8	1.3
Cc1ccccc1NC(=O)CN1CCC(C(=O)c2ccc3c(c2)OCCO3)CC1	5.1	0.634	0.9	0.6	i	2.1	2.0	-18.1	2.8
CCCN(C(=O)c1cn(C)c(=O)c2ccccc12)c1ccccc1C	1.2	0.673	-39.6	-3.4	i	-1.7	6.0	1.5	2.2
CC1CCCCN1CCCNC(=O)c1ccc2nc(N3CCCCC3)sc2c1 (stereo unspecified)	6.1	0.728	-0.9	-2.2	i	7.9	10.5	8.0	1.1
Cc1nccn1CCCNC(=O)CC1C(=O)NCCN1Cc1ccccc1C(F)(F)F (stereo unspecified)	-5.0	0.667	/	8.3	i	1.0	15.0	5.3	0.6
CC(C)n1c(SCC(=O)Nc2nc3c(s2)CCCC3)nc2c1c(=O)n(C)c(=O)n2C	2.3	0.675	-29.8	5.7	/	3.2	/	/	/
Cc1sc2nc(SCC(N)=O)n(-c3ccccc3)c(=O)c2c1C	1.3	0.73	-2.9	-7.9	i	-1.1	16.4	6.3	-0.9
CN(CCOc1ccc(Cl)cc1)C(=O)c1cc(S(=O)(=O)N2CCOCC2)ccc1N1CCCC1	3.2	0.653	-5.5	3.9	i	-1.2	-24.3	-42.2	-4.4
O=S1(=O)c2cccc3cccc(c23)N1Cc1nnc(-c2ccccc2Br)o1	-17.3	0.648	-8.1	-16.0	/	2.7	/	/	/
Cc1nc(NC(=O)/C=C/c2ccccc2)sc1C(=O)Nc1ccccc1Cl	-74.4	0.715	1.1	5.0	/	-2.5	/	/	/
CC(=O)Nc1ccc(NC(=O)c2c([N+](=O)[O-])cnn2C)cc1	5.9	0.721	-4.0	0.4	i	0.0	4.5	1.2	2.6
O=C(Nc1cc(C(F)(F)F)ccc1N1CCCC1)C1=COCCO1	1.2	0.668	28.6	-3.9	i	0.8	-0.5	-0.9	0.3
Cn1nc(NC(=O)C(F)(F)F)c2ncc(-c3ccc(Cl)cc3)nc21	/	/	/	1.7	i	2.7	-7.3	-5.6	-2.1
CCN(CC(=O)NCc1ccc(Cl)cc1)C(=O)c1cccc(S(=O)(=O)Nc2ccc(OC)cc2)c1	0.2	0.659	-9.7	28.9	i	-3.7	-5.2	-3.8	0.1
Following part
SMILES	UCH37 DUB inh	E coli growth	ALR inh	B2AR ag	FGF22 binding	HNF4A DNA FP	rRNA inh HTS	rRNA inh HTS OD600	rRNA inh HTS RFP
CCN(CC(=O)Nc1ccc(NC(C)=O)cc1)C(=O)/C=C/c1ccc(C)o1	5.4	0.72	0.4	-1.3	i	3.9	10.8	13.0	0.3
CCOc1ccccc1C(=O)NC1CCNCC1	1.1	0.652	6.4	-0.1	i	0.9	13.6	9.6	2.5
O=C(CCNC(=O)c1ccccc1Cl)NC1=NCCS1	-0.1	0.684	19.7	8.9	i	0.4	20.9	16.6	0.8
O=C(CCl)N1CCN(S(=O)(=O)Cc2ccccc2)CC1	2.2	0.708	-2.7	-1.7	i	-3.0	15.3	13.6	-1.8
O=S(=O)(c1ccccc1)n1ccc(-c2cnc(-c3ccccc3)s2)n1	-6.4	0.745	-6.8	3.2	/	3.6	/	/	/
Clc1ccc(CSc2nnc(-c3ccccn3)n2Cc2cccs2)cc1Cl	/	/	/	/	i	-0.9	2.2	-13.0	5.6
O=C(OCc1ccc(-c2ccccc2)cc1)c1cccc(O)c1	4.2	0.662	-1.9	-1.1	i	-2.4	-53.1	-77.4	-16.0
N#CCOC(=O)[C@H](Cc1ccccc1)N1C(=O)c2ccccc2C1=O	2.2	0.643	-3.6	12.1	i	4.3	-1.5	-2.5	-2.5
Cc1cc(C(=O)NC2CCCCCC2)c2ccccc2n1	2.3	0.662	2.0	-0.3	i	3.6	/	/	/
O=C(Cn1cnc2ccccc21)Nc1ccc(C(=O)O)cc1	1.1	0.599	-12.8	6.4	/	1.1	/	/	/
O=C(Nc1ccccc1N1CCCC1)c1cccc(Cl)c1Cl	1.9	0.696	98.3*	1.3	i	-0.4	-11.7	-2.7	0.3
CCN(CC)C(=O)Oc1ccc2ccccc2c1Br	0.8	0.635	-7.2	5.0	i	5.7	-49.2	-65.5	-3.7
Cc1cc2ccccn2c1C(=O)Nc1ccccc1	-82.5	0.653	14.5	-9.5	i	0.6	2.5	5.9	-0.9
CCc1cc2c(SCC(=O)O)ncnc2s1	1.5	0.755	-1.7	7.4	i	-0.4	-0.4	-5.4	-1.8
CCCS(=O)(=O)NC(=O)C1(C)CCCN(C(=O)c2c(-c3ccccc3)noc2C)C1 (stereo unspecified)	/	/	/	/	i	-0.6	6.7	10.4	2.4
O=C(O)COCC(=O)N1CCc2c([nH]c3ccccc23)C1C(F)(F)F (stereo unspecified)	-0.6	0.684	-1.6	1.7	i	3.6	3.3	5.7	-1.3
O=[N+]([O-])c1ccc2nc(-c3ccc(Cl)cc3)[nH]c2c1	-24.4	0.556	-10.0	5.3	+	-0.3	-63.9	-81.1	-25.9
C=CCn1c(-c2ccc(OC)c(OC)c2)n[nH]c1=S	1.7	0.738	6.7	2.1	/	-5.3	/	/	/
COc1ccc(OC)c(C2CC(=O)C(C)C(c3cc(OC)ccc3OC)N2)c1 (stereo unspecified)	-1.3	0.691	-4.8	1.3	/	-2.7	/	/	/
CCOC1=C/C(=C/c2c(N)n3nc(S(=O)(=O)CC)sc3nc2=O)C=CC1=O	13.9	0.692	98.6*	25.6	/	21.6	-6.2	-3.4	-4.7
OCCC1CN(Cc2ccn[nH]2)CCN1Cc1ccc(F)c(F)c1 (stereo unspecified)	2.1	0.699	-4.3	11.4	i	-2.3	11.4	10.4	1.3
COCCN(C(=O)CC1CCCC1)c1c(N)n(CC(C)C)c(=O)[nH]c1=O	1.4	0.648	3.0	-5.0	i	0.3	5.5	18.9	-1.2
O=C(CCSc1ccc(Cl)cc1)NCc1ccncc1	0.1	0.692	3.6	5.8	i	-1.6	-11.7	-6.3	-4.7
FC(F)(F)c1cc(CCN2C(=S)NC[C@@H]2CC2CCCCC2)cc(C(F)(F)F)c1	/	/	/	1.6	i	1.2	8.1	-0.3	-0.1
O=C(COc1ccc2ccccc2c1)Nc1cccc2c1C(=O)NC2=O	-64.9	0.677	-9.5	/	/	/	/	/	/
Continued.
SMILES	UCH37 DUB inh	E coli growth	ALR inh	B2AR ag	FGF22 binding	HNF4A DNA FP	rRNA inh HTS	rRNA inh HTS OD600	rRNA inh HTS RFP
O=C(c1ccccc1OCc1ccc(Cl)cc1)N1CCN(c2ccccn2)CC1	0.0	0.625	-102.0	-5.0	i	-0.1	-33.7	-63.5	0.3
CC1CN(S(=O)(=O)c2cccc(C(=O)OCc3cc(=O)oc4cc(O)ccc34)c2)CC(C)O1 (stereo unspecified)	-67.6	0.715	8.3	5.5	/	-4.2	/	/	/
O=C(NCc1ccccc1)C1=C[C@H](c2ccc(Br)cc2)C[C@H](OCCCCO)O1	4.0	/	1.2	-1.3	/	0.5	/	/	/
COc1ccc(NC(=O)CN(C)C(=O)c2cccc(S(=O)(=O)N3CCN(C)CC3)c2)cc1	3.3	0.654	-11.4	1.2	i	0.0	12.4	21.1	-0.9
Cc1ccc2[nH]c(C(=O)O)c(NC(=O)[C@@H]3C[C@@H]3c3ccccc3)c2c1	5.3	0.694	59.0	5.3	i	4.5	5.5	-7.2	2.2
CC(C)(C)n1nnc(CCc2nnn(C(C)(C)C)n2)n1	2.1	0.691	-28.9	-0.2	/	1.8	/	/	/
CCN(CC)CCNC(=O)c1ccc(Cl)c(S(=O)(=O)N2CCCCCC2)c1	3.5	0.738	-0.1	4.4	/	5.0	/	/	/
O=C(Cc1ccc(Cl)cc1)Nc1ccc(N2CCN(C(=O)c3ccco3)CC2)cc1	5.0	0.77	-7.1	4.7	/	1.7	/	/	/
COc1ccccc1NC(=O)c1ccc2nsnc2c1	4.7	0.644	-0.4	1.6	i	1.2	4.9	2.8	0.7
C[N+](C)(CCOc1ccccc1)Cc1ccccc1	/	/	/	-1.4	i	-2.3	/	/	/
CCOc1ccccc1NC(=O)Nc1ccc(OC)nc1	3.1	0.632	-21.3	-4.1	i	-9.3	-0.1	-4.6	4.8
COC(=O)C1CCN(C(=O)c2ccc3oc(Cc4ccc(Cl)cc4)nc3c2)CC1	0.2	0.706	-3.8	-1.2	i	-0.2	-13.5	-8.0	-1.7
Cc1cc(C(=O)COC(=O)c2ccc(F)cc2F)c(C)n1C1CC1	-1.3	0.693	1.2	2.3	i	1.2	2.8	9.0	-0.8
Cc1ccc2cc(F)c(F)c(F)c2n1	/	/	/	/	i	1.9	9.5	6.1	0.0
NCCc1c(C(=O)O)[nH]c2ccc([N+](=O)[O-])cc12	4.2	0.71	-1.3	2.2	i	1.5	13.3	8.0	-4.8
